Screening results from PubChem BioAssay.
HIV Env fusion: inhibitors of HIV-1 Env-driven cell-cell fusion, primary screen, HeLa-JRFL effector, CEM21 target cells, luciferase. inhibition, % at 12.3 µM. actives 1.1% (n = 360,000). AID 651610, 2012;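 active = mean replicate inhibition score of at least 50 and every replicate individually at or above 50; inconclusive = only one of the two criteria met; inactive = mean below 50 and not all replicates reaching 50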;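 note: 0% = plate neutral controls and 100% = maraviroc near 300 nM; one replicate is shown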
CSC inhib: cancer stem cell viability inhibitors, primary screen, luminescence; cancer stem cell-like cells viability; inhibition, % at 7.5 µM; actives 1.1% (n = 300,000); AID 2717, 2010;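 active = mean at 75% or more and at least half the replicates too; inconclusive = mean and replicates disagree; tested in HMLE shEcad cells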;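 note: 0% = median of negative and 100% = median of positive control wells; the first replicate is given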
UUG fidelity: modulators of yeast start codon fidelity, primary screen, whole organism, S. cerevisiae, single point, plate reader; S. cerevisiae UUG-firefly luciferase reporter, luminescence/redox ratio; actives 0.13% (n = 350,000); activity score, % at 18.7 µM;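 active = replicate mean at a twofold rise or more, about +100% in these data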;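 note: firefly luciferase made from a UUG start codon reports start codon fidelity; reporter light over untreated wells divided by growth signal over untreated wells; some hits fall short of that in this replicate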
PABP FP inh: PABP poly(A) RNA binding inhibitors, primary screen, biochemical, fluorescence polarization, uHTS; Polyadenylate-binding protein 1 (Homo sapiens), P11940; inhibition, % at 35 µM; actives 1% (n = 290,000);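 active = 50% or more with normal probe brightness, or confirmed in later tests; inconclusive = above 50% with abnormal brightness, or retests that disagree; inactive = below 50% or failed in later tests; about a fifth of its hits are not listed in these tables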;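 note: calls also rest on retests at 20 µM and on dose response follow-up; controls were probe without protein and protein plus probe with vehicle; some compounds called inactive have numbers as strong as hits; many hits fall short of the cut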
eIF4H inh: human eIF4H binding inhibitors, primary screen, translation initiation inhibitor project, biochemical, uHTS, fluorescence polarization. eIF4H fluorescence polarization binding assay. inhibition, % at 35 µM. actives 0.94% (n = 290,000);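 active = 50% or more with normal probe brightness, or confirmed in later tests; inconclusive = above 50% with abnormal brightness, or retests that disagree; inactive = below 50% or failed in later tests; about a fifth of its hits are not listed in these tables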;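 note: calls also rest on retests at 20 µM and on dose response follow-up; 0% = protein and probe with vehicle and 100% = probe without protein; strong numbers were not always called active; many hits fall short of the cut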
Rce1 inh: yeast Rce1p protease inhibitors, primary screen, biochemical, fluorescence, cell-free homogeneous. CAAX prenyl protease 2 (Saccharomyces cerevisiae (strain ATCC 204508 / S288c)), Q03530. actives 0.27% (n = 290,000). calls only. AID 2563, 2010. yeast membranes, quenched prenylated peptide cleavage fluorescence;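 active = fall in fluorescence gain of 50% or more versus controls, with final raw signal at or below 3038400; inconclusive = same 50% fall but final raw signal above 3038400; inactive = fall in fluorescence gain under 50%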;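 note: plate controls were neutral control wells for no effect and wells lacking membranes for full effect; tested at 10 µM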
Target sequence (Q03530 whole entry, looked up): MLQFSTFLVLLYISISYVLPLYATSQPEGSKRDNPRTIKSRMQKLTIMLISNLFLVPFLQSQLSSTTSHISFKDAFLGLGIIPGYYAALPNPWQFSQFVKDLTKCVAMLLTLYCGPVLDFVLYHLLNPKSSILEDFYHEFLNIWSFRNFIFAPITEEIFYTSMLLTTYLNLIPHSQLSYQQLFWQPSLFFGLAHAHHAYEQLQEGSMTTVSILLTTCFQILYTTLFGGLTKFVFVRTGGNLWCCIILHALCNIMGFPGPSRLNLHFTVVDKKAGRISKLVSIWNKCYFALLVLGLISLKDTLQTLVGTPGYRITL
MT1-MMP act inh: blockers of MT1-MMP proenzyme processing, primary screen, HT1080 RFP-PRO-GFP cells, GFP/RFP fluorescence | Matrix metalloproteinase-14 (Homo sapiens), P50281 | GFP/RFP ratio fluorescence, overnight; percent of plate control window, DMSO zero | GFP/RFP ratio change, % at 20 µM | actives 0.061% (n = 360,000);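 active = GFP/RFP ratio change of at least 30% with cell ATP level not reduced by more than half and red fluorescence within 50% of control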; note: strong numbers were not always called active
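Read-out: GFP/RFP fluorescence ratio; Test system: RFP-PRO-GFP reporter HT1080 cells; Compound dosing: single-point 20 µM compound, 1% DMSO; Times: overnight compound exposure at 37 °C.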
MT1-MMP act inh RFP: second read-out of MT1-MMP act inh, no call of its own (marks repeat the call); RFP signal change, %; measured here: RFP expression control read;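 0 = vehicle wells; hits needed this value within 50% of zero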
Numbers without * were called inactive; i = inactive; ? = inconclusive; · = not tested or not shown.

SMILES	HIV Env fusion	CSC inhib	UUG fidelity	PABP FP inh	eIF4H inh	Rce1 inh	MT1-MMP act inh	MT1-MMP act inh RFP
CC(=O)N(C)/C=C1\Sc2ccccc2C1=O	·	-3	-39	-3	-7	i	3	10
c1ccc(CNc2nc3ccccc3n3cnnc23)cc1	1	-3	-10	-2	5	i	3	8
COc1ccc(-n2c(Cc3cccn3C)nnc2SCC(=O)NCC2CCCO2)cc1 (stereo unspecified)	-68	-10	-11	19	-1	i	2	5
Cc1ccc2nc(/C(C#N)=C/c3ccccc3C(=O)O)[nH]c2c1	-12	-23	-9	2	-5	i	-12	-1
Cc1cc(CN2CCC(n3nccc3NC(=O)c3ccccc3C)CC2)n[nH]1	-2	0	-17	2	0	i	-1	3
N#CC1(NC(=O)CN2C(=O)c3ccccc3C2=O)CCCCC1	·	-1	-12	·	·	·	-2	1
CS/C(=N\S(=O)(=O)c1ccccc1)c1ccccc1	4	-22	·	-5	-10	i	2	6
Cc1ccc2oc(=O)c(/C=C(\O)c3cccs3)nc2c1	-27	2	·	?	?	i	-2	-5
O=C(CCN1C(=O)[C@@H]2Cc3ccccc3CN2C1=O)N[C@H](C(=O)O)c1ccccc1	5	3	-16	3	-15	i	1	1
Cc1ccc2c(c1)c(Sc1ccccc1)c(CC(=O)O)n2C	9	-17	-2	4	2	i	-2	6
Cn1nnnc1SCC(=O)N1CCN(Cc2ccccc2)CC1	·	0	·	-4	12	i	3	-1
NS(=O)(=O)c1ccc(N=Cc2c(O)c3ccccc3oc2=O)cc1	18	5	·	-3	8	i	-1	7
COc1ccc(OC)c(CN2CCN(Cc3cccc4ccccc34)CC2)c1	9	37	-4	24	17	i	0	-2
CCc1ccc(NS(=O)(=O)c2ccc(OC)c(C)c2)cc1	11	13	-2	2	-5	i	-3	-3
CN1CCN(C(=O)c2ccccc2NC(=O)C(C)(C)C)CC1	-25	-4	-10	-3	3	i	-2	3
Cc1cc(C)c(C#N)c(SCCS(=O)(=O)Cc2ccccc2)n1	·	-4	-8	-2	-10	i	5	1
O=C1CC(N2CCN(S(=O)(=O)c3ccccc3F)CC2)C(=O)N1c1ccc(F)cc1F (stereo unspecified)	-25	-5	·	·	·	·	1	0
O=C(CNC(=O)C12CC3CC(CC(C3)C1)C2)NC1=NCCS1	-21	-4	-9	4	-5	i	4	2
O=C(CCNC(=O)c1ccc(Cl)cc1)NCC(c1ccco1)N1CCCCC1 (stereo unspecified)	-1	-11	-10	·	·	i	-2	1
COc1ccc(C(=O)Nc2nnc(SCC(=O)NCc3ccco3)s2)cc1OC	-5	7	-9	13	5	i	4	1
O=[N+]([O-])c1cc([N+](=O)[O-])c(Oc2c(F)cccc2F)cc1NN1CCCCC1	9	34	0	0	-2	i	0	3
Cc1cc(C)c2cc(C=O)c(Cl)nc2c1	-101	-3	·	-8	2	i	8	5
OC1c2cc(Br)ccc2N=C2CCCN21 (stereo unspecified)	-7	-4	-16	-17	1	i	-9	-10
C=CCN1C(=O)c2ccc(C(=O)OCC(=O)N3CCN(c4ccccc4)CC3)cc2C1=O	-4	3	·	·	·	i	-1	1
CCCCCCN(C(=O)CCCCCN1C(=O)NC(c2ccc(-c3ccccc3)cc2)C(C(=O)OCc2ccccc2)=C1C)C(C(=O)NCCCC)c1ccc(O)c(C(=O)OC)c1 (stereo unspecified)	·	·	·	0	-3	i	·	·
CC(C)(C)N=C1C([N+](=O)[O-])=CC=C2C1=NC1(CCCCC1)N2O	-2	-4	·	-7	44	i	11	-4
O=C(/C=C/c1ccc(F)cc1)NCc1cccs1	-17	-9	·	-2	-5	i	1	1
Cn1cc([N+](=O)[O-])c(C(=O)N/N=C/c2ccc([N+](=O)[O-])cc2)n1	11	·	4	0	-12	i	0	-3
CC(=O)N1CCN(Cc2nc3cc(NC(=O)COc4cccc(C)c4)ccc3n2C)CC1	15	5	-22	-12	-4	i	2	-9
COc1ccc(C=CC(=O)c2ccc(OCc3ccccc3)c(OC)c2)cc1OC	4	·	-4	·	·	·	-3	-7

A second format for some results above:
Each structure is followed by: HIV Env fusion | CSC inhib | UUG fidelity | PABP FP inh | eIF4H inh | Rce1 inh | MT1-MMP act inh | MT1-MMP act inh RFP
- O=C(CCNC(=O)c1ccc(Cl)cc1)NCC(c1ccco1)N1CCCCC1 (stereo unspecified)
    -1 | -11 | -10 | · | · | i | -2 | 1
- COc1ccc(C(=O)Nc2nnc(SCC(=O)NCc3ccco3)s2)cc1OC
    -5 | 7 | -9 | 13 | 5 | i | 4 | 1
- O=[N+]([O-])c1cc([N+](=O)[O-])c(Oc2c(F)cccc2F)cc1NN1CCCCC1
    9 | 34 | 0 | 0 | -2 | i | 0 | 3
- Cc1cc(C)c2cc(C=O)c(Cl)nc2c1
    -101 | -3 | · | -8 | 2 | i | 8 | 5
- OC1c2cc(Br)ccc2N=C2CCCN21 (stereo unspecified)
    -7 | -4 | -16 | -17 | 1 | i | -9 | -10
- C=CCN1C(=O)c2ccc(C(=O)OCC(=O)N3CCN(c4ccccc4)CC3)cc2C1=O
    -4 | 3 | · | · | · | i | -1 | 1
- CCCCCCN(C(=O)CCCCCN1C(=O)NC(c2ccc(-c3ccccc3)cc2)C(C(=O)OCc2ccccc2)=C1C)C(C(=O)NCCCC)c1ccc(O)c(C(=O)OC)c1 (stereo unspecified)
    · | · | · | 0 | -3 | i | · | ·
- CC(C)(C)N=C1C([N+](=O)[O-])=CC=C2C1=NC1(CCCCC1)N2O
    -2 | -4 | · | -7 | 44 | i | 11 | -4
- O=C(/C=C/c1ccc(F)cc1)NCc1cccs1
    -17 | -9 | · | -2 | -5 | i | 1 | 1
- Cn1cc([N+](=O)[O-])c(C(=O)N/N=C/c2ccc([N+](=O)[O-])cc2)n1
    11 | · | 4 | 0 | -12 | i | 0 | -3
- CC(=O)N1CCN(Cc2nc3cc(NC(=O)COc4cccc(C)c4)ccc3n2C)CC1
    15 | 5 | -22 | -12 | -4 | i | 2 | -9
- COc1ccc(C=CC(=O)c2ccc(OCc3ccccc3)c(OC)c2)cc1OC
    4 | · | -4 | · | · | · | -3 | -7

The list goes on.
SMILES	HIV Env fusion	CSC inhib	UUG fidelity	PABP FP inh	eIF4H inh	Rce1 inh	MT1-MMP act inh	MT1-MMP act inh RFP
Cc1ccc(S(=O)(=O)Nc2c(C)nc3nc(C)[nH]n3c2=O)cc1	-13	·	-5	-5	12	i	-2	0
CC(C)(C)c1cc(CN2CCN(CCO)CC2)cc(C(C)(C)C)c1O	24	-18	6	23	-7	i	0	1
C=CCNC(=O)CCNS(=O)(=O)c1ccc(Br)cc1	-7	-6	-5	4	5	i	2	6
CCOC(=O)CCn1c(CC(=O)OCC)nc2ccccc21	11	-6	-13	29	-9	i	-1	0
COc1ccccc1CN(Cc1cccnc1)S(=O)(=O)c1ccc(-n2cnnn2)c(OC)c1	1	-8	-7	-1	10	i	-2	-2
CC(C)CCN1CCNC(=O)C1CC(=O)N(C)CCCN1CCOCC1 (stereo unspecified)	1	-4	-2	-1	-6	i	-4	0
COc1ccccc1CNC(=O)C1CCN(S(=O)(=O)c2ccc3c(c2)CC(C)N3C(=O)C2CC2)CC1 (stereo unspecified)	26	-5	-2	·	·	i	2	-10
O=C(CNC(=O)CNC(=O)c1ccc(Cl)cc1Cl)NCc1cccc(Cl)c1	2	-6	9	6	-9	i	0	0
O=[N+]([O-])/C=C/c1c(OCc2ccccc2)ccc2ccccc12	·	-9	286*	-3	-9	i	-26	-37
Cc1cc2ncn(CC(O)COC3CCCCC3)c2cc1C (stereo unspecified)	·	32	-29	-6	-1	i	-3	0
COc1ccc(N(C(=O)c2csnn2)C(C(=O)NC2CCCC2)c2cccs2)cc1 (stereo unspecified)	28	-6	14	2	-6	i	-1	5
COc1ccc(C(=O)C2CCCN(C(=O)c3cc(C(C)C)no3)C2)cc1F (stereo unspecified)	2	-1	·	2	0	i	2	3
CC1(C)OC(=O)C=C[C@]2(C)[C@H]3CC[C@@]4(C)[C@H](C(=O)O)OC(=O)[C@H]5O[C@]54[C@]3(C)C(=O)C[C@@H]12	5	-4	-13	·	·	·	3	7
COc1ccc(NC(=O)C2Cc3c(-c4cccc(NC(C)=O)c4)ccnc3O2)cc1OC (stereo unspecified)	10	·	4	·	·	·	-5	-22
CCc1ccc(N(CC(=O)NCc2ccc(OC)cc2)C(=O)CCC(=O)Nc2ccccn2)cc1	3	4	1	5	-21	i	-2	-1
O=C(CC1NCCNC1=O)Nc1ccc([N+](=O)[O-])cc1 (stereo unspecified)	13	-6	·	-3	6	i	1	3
COc1ccccc1CN1C(=O)CN(C2CCCC2)C(=O)C1c1ccc(F)cc1 (stereo unspecified)	·	-6	-9	-8	3	i	·	·
Cc1cc([N+](=O)[O-])c(C)cc1-c1ccc(/C=N/NC(=O)Cn2nnnc2N)o1	-4	-5	·	4	1	i	-8	-5
Cc1nn(-c2ccccc2)c(C)c1C(=O)OCC(=O)N1c2ccccc2NC(=O)C1(C)C	·	1	-2	3	-2	i	-5	-9
COc1cccc(OC)c1C(=O)NC(=S)Nc1cccc(NC(=O)c2ccco2)c1	14	-2	·	-4	4	i	6	2
COc1ccc2c(c1OC)C(=O)N(c1cccc(NC(C)=O)c1)C2	-13	-6	3	7	2	i	6	7
Cc1ccc(-n2ccc(=O)c(C(=O)Nc3ccc(S(=O)(=O)N4CCOCC4)cc3)n2)cc1	8	4	-9	-9	-7	i	3	-3
NC(=O)c1sc2nc(-c3ccccc3)ccc2c1N	51	-11	-9	3	6	·	-19	1
CC(=O)OC(C)(CCC(C)(OC(C)=O)C(C)=O)C(C)=O (stereo unspecified)	·	·	·	-7	-8	i	-1	6
CNC(=S)N(Cc1cc2ccc(OC)cc2[nH]c1=O)CC1CCCO1 (stereo unspecified)	-10	-2	·	0	-10	i	3	-1
C=C1C(=O)OCC2C(C(=O)O)=CC3C(C)C(C)=CC123 (stereo unspecified)	5	·	-15	·	·	·	-2	-10
CNC(=O)CN(c1cc(C)ccc1C)S(C)(=O)=O	·	-4	-4	-2	-11	i	-10	2
Cc1sc2ncn(CC(=O)N3CCC(C(N)=O)CC3)c(=O)c2c1S(=O)(=O)N1CC(C)CC(C)C1 (stereo unspecified)	2	·	-1	7	-3	i	0	4
O=C(NCc1ccccc1)C12CN(Cc3ccccc3)CC1C(c1cccc([N+](=O)[O-])c1)=NO2 (stereo unspecified)	8	13	3	7	-5	i	-5	-8
O=C(COC(=O)c1ccccc1[N+](=O)[O-])NNC(=O)c1cccs1	34	-5	-14	1	-9	i	-4	-2
COc1ccc2nc(SCc3cccnc3)c(C#N)cc2c1	·	-11	-7	3	0	i	0	3
Cc1ccc(N(CC(=O)NCC2CCCO2)C(=O)CCC(=O)Nc2ccccn2)cc1C (stereo unspecified)	·	-3	-3	-6	-9	i	-6	-6
Cc1ccc(S(=O)(=O)NCC(=O)OCCOc2cccc(Cl)c2)cc1	-6	·	1	·	·	·	-4	2
